TRPML1 ag – qHTS for Agonists of the Human Mucolipin Transient Receptor Potential 1 (TRPML1); TRPML1-expressing cells, Ca2+ dye fluorescence, FDSS; host cell line not named in the record; reference of the full effect not given here; AID 624414, 2012; 410,000 tested, 0.12% active; activation, % (concentration not given with the values); Mucolipin-1 (Homo sapiens), Q9GZU1; in the data active = activation above about 50%; inconclusive = about 30% to 50%; inactive = below about 30%; further: 0% is about no effect; the text of the record puts the active cut at 80%
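Tetracycline-induced TRPML1-DL cells are seeded and incubated overnight before loading with a no-wash Ca2+ dye and quencher. Agonist activity is taken from the 110 s fluorescence read following compound pin-transfer on an FDSS, before EC80 54-4 challenge.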
CtBP-E1A blk – qHTS Assay for Inhibitors of the CtBP/E1A Interaction; 340,000 tested, 0.49% active; activity change, % (concentration not given with the values); AlphaScreen GST-E1A/His-CtBP binding, 1536-well; active compounds read low; control for the full effect not named in the record; in the data active means activity change below about -65%; inconclusive means about -30% to -65%; inactive means above about -30%; further: on the % scale 0 is the no-effect control and ±100 the full control effect
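Homogeneous bead-based format: GST-tagged E1A captured on glutathione donor beads, His-tagged CtBP on nickel acceptor beads; compounds precede bead addition by 2 h at 37 °C.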
D2 potentiator – Beta-Arrestin HTS for Positive Allosteric Modulators of the Human D2 Dopamine Receptor: Potentiators. potentiation, % (concentration not given with the values). 360,000 tested, 0.23% active. DiscoveRx D2 beta-arrestin cells, luminescence, 90 min; 100% = 57 uM dopamine signal. D(2) dopamine receptor (Homo sapiens), P14416. AID 624464, 2012; active = potentiation of 50% or more; inconclusive = 30% to 50%; inactive = 30% or less;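 further: compound concentration not given in the record; tested on top of an EC20 dose of dopamine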
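D2 cells co-treated with compound plus 50 nM dopamine (EC20) for 90 min at 37 deg C to detect potentiation. Beta-arrestin recruitment was read as enzyme-fragment luminescence after 1 h at ambient temperature. Full response was set by 57 uM dopamine.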
PINK1 modulator – A Quantitative High throughput Screen to Identify Chemical Modulators of PINK1 Expression | PINK1 immunofluorescence, high-content cytometry, 24 h | Potency, µM (series often up to 76.6 µM), inactives show top-dose activation (PINK1 increase), hits mostly activators | 410,000 tested, 0.2% active | AID 624263, 2012; active = well fitted activation curve with a large enough effect; inconclusive = small, poorly fitted or top-dose-only effect; inactive = flat fitted curve, though single readings scatter; cell line not stated here;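 further: potency means the concentration at half of the fitted maximal effect; % of control where 0% means no effect; nearly all actives have a fitted effect of over 65% in size; a mitochondrial uncoupler was the plate control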
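Compound titrations (5 concentrations, 24 h) on a stable cell line; DMSO and CCCP controls. Endpoint: fixed-cell PINK1 immunofluorescence with mitochondrial, cell and nuclear markers, scanned by microplate cytometer.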
D2 agonist – Beta-Arrestin HTS for Positive Allosteric Modulators of the Human D2 Dopamine Receptor: Agonists. D(2) dopamine receptor (Homo sapiens), P14416. DiscoveRx PathHunter D2 beta-arrestin, luminescence, 90 min; 100% = 57 uM dopamine signal. activation, % (test concentration not listed). 360,000 tested, 0.084% active. AID 624465, 2012; in the data active = activation above about 40%; inconclusive = about 15% to 40%; inactive = below about 15%; further: compound concentration not given in the record; the text of the record calls up to 30% inactive
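DiscoveRx PathHunter D2 beta-arrestin cells (2,100/well) attached overnight, then compound-stimulated 90 min at 37 C in HBSS/10 mM HEPES/0.1% Tween-20 buffer; beta-galactosidase complementation read by luminescence after 1 h at ambient temperature. Dopamine 57 uM final (EC100) as control.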
Six1-Eya2 blk – qHTS Assay for Inhibitors of the Six1/Eya2 Interaction; Homeobox protein SIX1 (Homo sapiens) + Protein phosphatase EYA2 (Homo sapiens), …; AlphaScreen GST-Six1/His-Eya2 binding, biochemical; active compounds read low; control for the full effect not named in the record; activity change, % (no concentration beside the values); 360,000 tested, 0.56% active; in the data active = activity change below about -65%; inconclusive = about -30% to -65%; inactive = above about -30%; further: on the % scale 0 is the no-effect control and ±100 the full control effect
Target sequence (O00167 whole entry, looked up): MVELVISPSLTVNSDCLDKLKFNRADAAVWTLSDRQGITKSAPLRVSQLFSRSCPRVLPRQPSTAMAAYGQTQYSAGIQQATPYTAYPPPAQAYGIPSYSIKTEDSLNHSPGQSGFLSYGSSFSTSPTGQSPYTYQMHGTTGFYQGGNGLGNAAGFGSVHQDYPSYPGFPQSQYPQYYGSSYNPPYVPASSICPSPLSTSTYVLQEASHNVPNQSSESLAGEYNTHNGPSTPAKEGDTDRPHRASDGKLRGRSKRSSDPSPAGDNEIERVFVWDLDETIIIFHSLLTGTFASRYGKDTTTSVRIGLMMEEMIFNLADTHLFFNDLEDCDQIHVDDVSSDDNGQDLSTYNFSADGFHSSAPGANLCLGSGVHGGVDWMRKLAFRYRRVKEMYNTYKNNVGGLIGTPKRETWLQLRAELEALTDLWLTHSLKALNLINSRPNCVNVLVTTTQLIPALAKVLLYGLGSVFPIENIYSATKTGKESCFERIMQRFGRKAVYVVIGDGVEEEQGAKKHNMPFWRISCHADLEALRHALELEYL
Target sequence (Q15475 whole entry, looked up): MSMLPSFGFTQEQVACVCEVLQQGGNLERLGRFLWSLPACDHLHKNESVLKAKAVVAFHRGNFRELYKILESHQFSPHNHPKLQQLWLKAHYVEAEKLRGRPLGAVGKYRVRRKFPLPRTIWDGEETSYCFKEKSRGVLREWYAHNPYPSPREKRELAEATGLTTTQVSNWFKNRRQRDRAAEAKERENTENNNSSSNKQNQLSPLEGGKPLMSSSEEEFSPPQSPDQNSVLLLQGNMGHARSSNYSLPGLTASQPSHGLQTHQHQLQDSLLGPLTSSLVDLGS
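AlphaScreen with GST-Six1 and His-Eya2 (5X mix: 250 nM and 500 nM), glutathione donor and nickel acceptor beads; buffer 50 mM Tris pH 8.0, 300 mM NaCl, 1 mM TCEP; 1 h at 37 C in the dark.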
Numbers without * were called inactive; ? = inconclusive; . = no result given; & = joins results of further samples; [ ] = remark or other dose.

SMILES	TRPML1 ag	Six1-Eya2 blk	PINK1 modulator	D2 agonist	D2 potentiator	CtBP-E1A blk
Cc1c(NC(=O)/C(C#N)=C/C2CC=CCC2)c(=O)n(-c2ccccc2)n1C (configuration not stated)	1.3	-0.4	0.2%	-7.1	-8.3	1.6
O=C(c1cccnc1)N(Cc1ccccc1)C(=O)c1cccnc1	-0.5	11.5	0.4%	-2.0	-3.7	3.5
CC1CC(=O)N(c2ccc(C(C)C)cc2)C(=O)C1	-0.8	14.5	-0.8%	0.1	-26.5	.
Cc1cc(C)nc(N2CCCC(C(=O)NC3CCCC3)C2)n1 (configuration not stated)	1.1	26.6	6.5%[38.3 µM]	-1.3	1.0	5.4
CCOc1ccc2oc(C(=O)N3CCN(c4ccccc4OCC)CC3)c(C)c2c1	0.0	-17.3	-1.3%	-0.4	18.2	-2.4
CC(C)C(=O)Nc1sc2c(c1-c1nc3ccccc3[nH]1)CCCC2	0.2	-8.7	15.4%	-5.0	-23.2	-1.2
COc1ccc(-c2nc3c(Cl)cc(C(F)(F)F)cn3c2Cc2cccc(Cl)c2)cc1OC	-0.2	-2.1	1.8%	.	.	-7.7
CCOC(=O)c1[nH]c(C)c(C(=O)N2CCN(c3cccc(Cl)c3)CC2)c1C	0.0	-18.2	0.4%[38.3 µM]	0.0	-18.1	-19.0
COCCNC(=O)/C(C#N)=C/c1c(F)cccc1Cl	0.9	3.1	5.5%	-1.5	2.3	0.5
COCCN(C(=O)COC(=O)c1ccc(Cl)s1)c1c(N)n(Cc2ccccc2)c(=O)[nH]c1=O	0.3	-8.8	-0.4%	-4.0	-6.1	-1.0
CCC(C)[C@H]1COCCS(=O)(=O)N1Cc1ccc(C)cc1 (some centres not stated)	-1.2&-0.4	9.1	5.5%	0.1	-6.9	-1.2
C=C1CC[C@@H]2[C@](C)(CO)[C@H](O)CC[C@@]2(C)[C@@H]1C/C=C1/C(=O)OCC1O (some centres not stated)	0.2	-0.4	-0.2%	-2.1	5.4	7.2
Cc1ccc(NC(=O)Cc2ccc(Cl)cc2)cc1S(=O)(=O)N1CCCCCC1	2.7	-1.6	?	11.5	0.3	2.6
O=C(O)CC(NC(=O)COc1ccccc1)c1cccc([N+](=O)[O-])c1 (configuration not stated)	0.7	1.5	0.4%	-5.9	-1.7	0.7
COc1cccc(NC2=C(Cl)C(=O)OC2OC(=O)c2ccco2)c1 (configuration not stated)	1.1	4.2	3.6%	-2.4	-17.5	-17.6
CCC1([N+](=O)[O-])COC(c2ccc(OC)cc2)OC1 (configuration not stated)	-0.3	-5.3	2.9%	-0.4	-7.0	-1.0
Cc1cc(C(=O)C(C)OC(=O)c2cnccn2)c(C)n1-c1ccccc1 (configuration not stated)	-0.4	-4.6	-1.4%	2.4	2.3	-3.1
COCCNC(=O)Cn1c(=O)n(Cc2ccc(C(=O)NCc3ccco3)cc2)c(=O)c2ccccc21	0.1	-16.1	4.9%	-2.5	3.7	8.2
Cc1csc(NC(=O)COc2ccc3c(c2)CCC3)n1	5.8	-0.6	1.8%	1.3	-12.8	-1.9
CCOC(=O)c1c(C)[nH]c(C(=O)COC(=O)c2cnc(C)cn2)c1C	3.1	1.5	-2.6%	-1.1	-2.3	-1.7
O=C(CN1CCN(Cc2ccc(F)cc2)CC1)Nc1nc2ccccc2s1	-0.9	-2.4	1.9%	-2.2	-68.7	.
Cc1nc2ccccc2n1CC(=O)NCCN1CCCC1	1.4	-1.6	0.1%[38.3 µM]	1.7	-2.1	1.6
CCOc1ccccc1OCC(=O)Nc1ccc(OC)c(S(=O)(=O)N2CCCCC2)c1	0.3	-8.7	3.9%	2.2	-25.3	-3.6
CCCNC(=O)c1ccc(Cn2cc(-c3ccc(OC)cc3)nc2C(C)N)cc1 (configuration not stated)	0.5	2.2	-0.7%	-1.4	-5.1	-5.4
O=C(COC(=O)CN1C(=O)C2CCCCC2C1=O)NNC(=O)c1ccc(Cl)cc1 (configuration not stated)	-0.2	-2.5	0.1%	-10.1	-29.2	9.6

The list continues:
SMILES	TRPML1 ag	Six1-Eya2 blk	PINK1 modulator	D2 agonist	D2 potentiator	CtBP-E1A blk
CCCCCCCCCCNC(=O)C(=O)Nc1ccccn1	-0.5	-1.9	20.3%	-2.3	-3.5	1.6
O=C(N/N=C\c1ccc(Cl)s1)C1COc2ccccc2O1 (configuration not stated)	1.6	-5.3	1.7%	-2.6	-6.3	-13.8
COc1ccc(OC)c(-n2c(-c3cc(-c4ccc(F)cc4)n[nH]3)n[nH]c2=S)c1	1.9	-3.3	-1.8%	-0.7	8.0	-7.6
CC(=NCCN1CCN(C(C)=C2C(=O)c3ccccc3C2=O)CC1)C1=C(O)CC(C)(C)CC1=O	-1.6	-2.0	0.7%	-6.2	-5.0	4.5
Cc1ccc(C)c(S(=O)(=O)N2CCN(C(=O)c3sccc3C)CC2)c1	-0.6	-3.8	-1.8%	-1.7	-11.4	8.1
CC(C)CNS(=O)(=O)c1ccc(CCC(=O)N2CCC(C(N)=O)CC2)cc1	-0.7	-3.7	-1.5%	9.0	-21.0	-1.6
C/C(Cc1ccccc1)=N/NC(=O)CCCC(=O)N/N=C(/C)Cc1ccccc1	0.8	3.8	0.2%	-1.3	0.6	3.1
O=C(NCC(=O)N(c1cccnc1)C(C(=O)NC1CCCCC1)c1ccccc1)c1ccco1 (configuration not stated)	0.3	1.9	-1.5%	8.8	-3.7	2.0
COc1ccccc1-c1nc2c(c(SCC(=O)N3CCCCC3)n1)Cc1c(CO)cnc(C)c1O2	-0.2	-6.0	0.3%	0.7	16.5	-4.3
COc1ccc(CNC(=O)COC(=O)C2CCN(S(=O)(=O)c3ccccc3C(F)(F)F)CC2)cc1	1.3	-3.6	-1.5%	-0.4	1.0	-0.7
O=C(CSc1nnc(-c2ccc(Cl)cc2)n1Cc1ccco1)NCc1ccc2c(c1)OCO2	2.6	-25.3	-2.5%	-3.4	-13.0	-11.8
O=C(CN1CCCCC1)NCC(=O)Nc1ccc(F)c(F)c1F	0.0	-5.1	-0.4%	-4.3	-11.6	15.3
CCCCCCNC(=O)c1c(O)c2cccc3c2n(c1=O)CCC3	0.1	17.4	4.5%	-0.3	-3.9	-0.8
COc1ccc(NC(=O)CSc2nc3c(c(=O)n2-c2ccc(C)cc2)SCC3)c(OC)c1	-1.1	1.9	-0.3%	-2.7	-6.0	2.1
CC1CN(C(=O)CN2C(=O)NC(C)(c3ccccc3)C2=O)CC(C)O1 (configuration not stated)	-0.3	1.2	-2.7%[38.3 µM]	-1.8	-15.5	9.0
CCC(C)(C)n1nnnc1C(c1cccc(C#N)c1)N1CCN(c2cc(C)ccc2C)CC1 (configuration not stated)	0.4	0.7	7.5%[38.3 µM]	-3.4	17.1	-4.7
O=C(CNC(=O)c1ccc(Br)cc1)NCC(=O)OCC(=O)c1ccc([N+](=O)[O-])cc1	0.5	17.5	-1.7%	9.6	1.7	-0.9
COCCn1c(SCC(=O)Nc2cccc(C)c2)nnc1C(C)C	-0.4	3.4	-0.7%	-0.1	-24.0	1.5
COc1ccc(OCC(=O)Nc2c3c(nn2-c2ccc(OC)cc2)CS(=O)(=O)C3)cc1	2.2	3.4	1.2%	1.4	8.6	0.0
C/C(N)=C(/C#N)C(=O)COC(=O)c1cc(-c2cccc(Br)c2)nc2ccccc12	0.0	0.5	12.7%	-3.7	-18.9	6.6
CN(Cc1ccc(F)cc1)C(=O)C(Cc1ccccc1)NC(=O)c1ccccc1 (configuration not stated)	0.5	-3.8	7.7%	2.6	5.9	2.6
CCN(CC)CCN(C(=O)c1ccc(S(=O)(=O)N2CCOCC2)cc1)c1nc2cc3c(cc2s1)OCCO3	0.2	-0.6	3.0%	-1.8	-15.1	6.5
Cc1cccc(-n2ncc3c2CCCC3NC(=O)CCc2ccncc2)c1C (configuration not stated)	-0.6	-0.2	1.4%	4.8	-4.4	-0.1
Cc1ccccc1N=C/C=C1\N(C)c2ccccc2C1(C)C	0.0	-5.5	-2.7%	-0.9	-11.6	-11.4
CC(C)CNC(=S)N(Cc1ccco1)Cc1cc2cc3c(cc2[nH]c1=O)OCCO3	0.7	-11.0	8.8%	-2.9	2.2	-6.0

Carrying on.
SMILES	TRPML1 ag	Six1-Eya2 blk	PINK1 modulator	D2 agonist	D2 potentiator	CtBP-E1A blk
CCCC(=O)Nc1ccccc1N1CCN(C(=O)c2ccccc2)CC1	1.7	22.6	-1.7%	-1.8	?	0.0
COc1ccc(C2(C)NC(=O)N(CC(=O)NC3CCCC3)C2=O)cc1OC (configuration not stated)	0.1	2.5	0.7%	-4.0	-0.7	-1.5
CCn1c(=O)c(C(=O)NNC(=O)c2ccccc2F)c(O)c2ccccc21	17.2	-9.9	2.6%	3.2	-4.9	-16.7
COCCn1nnnc1C(c1cc2cc(OC)c(OC)cc2[nH]c1=O)N1CCN(c2ccc(O)cc2)CC1 (configuration not stated)	-0.5	-18.0	-0.9%	2.3	28.7	-9.0
